Rce1 inh – yeast Ras-converting enzyme inhibition. Q03530. yeast membranes, quenched prenylated peptide cleavage fluorescence. calls only. hit rate 0.27% among 290,000;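 active means fall in fluorescence gain of 50% or more versus controls, with final raw signal at or below 3038400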;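 further: plate controls were neutral control wells for no effect and wells lacking membranes for full effect; tested at 10 µM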
Target sequence (Q03530 whole entry, looked up): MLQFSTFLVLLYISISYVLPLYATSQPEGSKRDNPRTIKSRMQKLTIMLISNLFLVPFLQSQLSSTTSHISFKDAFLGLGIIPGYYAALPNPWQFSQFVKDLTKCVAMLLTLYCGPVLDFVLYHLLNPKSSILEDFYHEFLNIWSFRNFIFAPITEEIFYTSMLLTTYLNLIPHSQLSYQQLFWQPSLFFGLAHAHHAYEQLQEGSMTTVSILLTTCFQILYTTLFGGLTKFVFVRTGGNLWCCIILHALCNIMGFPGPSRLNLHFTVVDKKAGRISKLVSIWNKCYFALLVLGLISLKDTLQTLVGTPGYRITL
PABP FP inh – PABP-poly(A) binding inhibition; P11940; PABP-poly(A) RNA binding, fluorescence polarization; inhibition, % at 35 µM; hit rate 1% among 290,000; AID 2014;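 active means 50% or more with normal probe brightness, or confirmed in later tests; about a fifth of its hits are not listed in these tables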;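 further: calls also rest on retests at 20 µM and on dose response follow-up; controls were probe without protein and protein plus probe with vehicle; some compounds called inactive have numbers as strong as hits; many hits fall short of the cut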
Target sequence (P11940 whole entry, looked up): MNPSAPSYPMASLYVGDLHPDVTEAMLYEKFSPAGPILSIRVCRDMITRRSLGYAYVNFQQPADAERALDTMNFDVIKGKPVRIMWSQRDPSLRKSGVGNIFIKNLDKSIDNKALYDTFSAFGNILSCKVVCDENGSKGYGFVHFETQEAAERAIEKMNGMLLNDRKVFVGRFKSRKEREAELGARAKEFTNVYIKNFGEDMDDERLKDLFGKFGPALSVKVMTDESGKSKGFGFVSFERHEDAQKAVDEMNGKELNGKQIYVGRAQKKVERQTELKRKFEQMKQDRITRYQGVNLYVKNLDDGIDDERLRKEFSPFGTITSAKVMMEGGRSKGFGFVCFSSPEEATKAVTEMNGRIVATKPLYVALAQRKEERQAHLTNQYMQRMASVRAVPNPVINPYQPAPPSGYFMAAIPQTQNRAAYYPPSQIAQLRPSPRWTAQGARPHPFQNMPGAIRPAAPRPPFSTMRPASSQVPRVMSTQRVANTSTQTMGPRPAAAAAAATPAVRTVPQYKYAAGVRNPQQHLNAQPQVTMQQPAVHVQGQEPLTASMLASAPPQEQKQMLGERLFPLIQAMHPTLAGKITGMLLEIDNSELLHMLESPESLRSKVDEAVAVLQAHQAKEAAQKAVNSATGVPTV
MT1-MMP act inh – inhibitors of human MT1-MMP activation; P50281; GFP/RFP ratio change, % at 20 µM; HT1080 RFP-PRO-GFP cells, GFP/RFP ratio fluorescence, overnight; percent of plate control window, DMSO zero; hit rate 0.061% among 360,000;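 active means GFP/RFP ratio change of at least 30% with cell ATP level not reduced by more than half and red fluorescence within 50% of control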; further: strong numbers were not always called active
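Assay system: HT1080 RFP-PRO-GFP cells | Dosing: 20 µM single dose, 1% DMSO | Incubation: Cells overnight before dosing, compound overnight, 37 °C, 5% CO2 | Evaluation: GFP/RFP fluorescence ratio | Control set: DMSO-only wells and HT1080 RFP-L50D-GFP cell wells as references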
Env fusion inh – HIV envelope-mediated fusion inhibition; hit rate 1.1% among 360,000; HeLa-JRFL Env/CEM21 cell fusion, luciferase; AID 651610; inhibition, % at 12.3 µM;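 active means mean replicate inhibition score of at least 50 and every replicate individually at or above 50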;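 further: 0% = plate neutral controls and 100% = maraviroc near 300 nM; one replicate is shown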
eIF4H FP inh – inhibitors of RNA binding by human eIF4H; AID 2012; Q15056; hit rate 0.94% among 290,000; inhibition, % at 35 µM; eIF4H fluorescence polarization binding assay;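 active means 50% or more with normal probe brightness, or confirmed in later tests; about a fifth of its hits are not listed in these tables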;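 further: calls also rest on retests at 20 µM and on dose response follow-up; 0% = protein and probe with vehicle and 100% = probe without protein; strong numbers were not always called active; many hits fall short of the cut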
Yeast UUG start – alters start codon recognition fidelity in yeast; activity score, % at 18.7 µM; S. cerevisiae UUG-firefly luciferase reporter, luminescence/redox ratio; hit rate 0.13% among 350,000;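 active means replicate mean at a twofold rise or more, about +100% in these data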;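 further: firefly luciferase made from a UUG start codon reports start codon fidelity; reporter light over untreated wells divided by growth signal over untreated wells; some hits fall short of that in this replicate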
CSC inhib – cancer stem cell inhibition | cancer stem cell-like cells viability, luminescence | AID 2717 | inhibition, % at 7.5 µM | hit rate 1.1% among 300,000;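 active means mean at 75% or more and at least half the replicates too; tested in HMLE shEcad cells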;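 further: 0% = median of negative and 100% = median of positive control wells; the first replicate is given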
MT1-MMP act inh RFP – further read-out of MT1-MMP act inh, marked with its call; RFP signal change, %; measured here: RFP expression control read;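 0 = vehicle wells; hits needed this value within 50% of zero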
Active calls of the source: *; i = inactive; / = no result given.

Screens in order: Rce1 inh, PABP FP inh, MT1-MMP act inh, MT1-MMP act inh RFP, Env fusion inh, eIF4H FP inh, Yeast UUG start, CSC inhib
[1] CC(C)C(NC(=O)c1ccco1)C(=O)OCc1cc([N+](=O)[O-])cc2c1OCOC2 (stereo not given)
→ i, -8, 0, 0, 13, -5, -4, -1
[2] CCC1CCCCN1CCCNC(=O)CS(=O)(=O)Cc1nc(-c2cccc(OC)c2)oc1C (stereo not given)
→ i, -1, -2, 1, -7, 4, /, -1
[3] CN=C(Nc1ccc(Cl)cc1)c1ccc(C(F)(F)F)cc1
→ i, 24, -6, 0, -30, 31, -12, 0
[4] COc1ccc(/C=C/C(=O)OCCNC(=O)c2ccncc2)cc1OC
→ i, 31, -3, 1, -6, -6, /, /
[5] C=CCc1ccccc1OCC(O)Cn1ccnc1C (stereo not given)
→ i, -1, 1, -2, 12, 4, -8, -13
[6] Brc1ccccc1OCCCOc1cccc2cccnc12
→ i, 1, 2, -7, -26, 5, -16, 25
[7] COCCNC(=S)Nc1ccc(S(=O)(=O)Nc2cnc3ccccc3n2)cc1
→ i, -4, 4, 2, 14, 7, /, -3
[8] O=C(NCc1ccccn1)c1ccco1
→ i, -5, 2, 2, -22, 10, /, -11
[9] CS(=O)(=O)c1ccc2nc(NC(=O)c3cccc(Cl)c3)sc2c1
→ i, -4, 9, -7, -17, -5, -6, -5
[10] CC1CCN(c2nc3ccc(C(=O)N4CCN(Cc5ccccc5)CC4)cc3s2)CC1
→ i, -6, -2, -21, -34, -6, -45, /
[11] COc1ccc(C(C)=O)cc1CSc1nnc2c(Cl)cc(Cl)cn12
→ i, -17, -1, 1, 12, -7, -9, 5
[12] CC1(C)Cc2ccccc2-c2nnc(SCC(=O)N3CCN(c4ccccc4)CC3)n21
→ i, 1, 12, -15, 83*, -9, 21, 48
[13] CSc1oc(-c2ccco2)nc1S(=O)(=O)c1ccc(Br)cc1
→ i, 2, 2, 1, -26, -5, -7, -6
[14] CCCCCCSc1ccc([C@@H]2[C@H]3C(=O)N(CC)C(=O)[C@H]3[C@]3(C(=O)OC)CCCCN23)cc1OC
→ /, /, -15, -7, 27, /, -14, /
[15] COc1cccc(S(=O)(=O)NCC(=O)N2CCCC2)c1
→ i, 3, 0, 6, -82, -16, -6, -11
[16] CCCSc1nsc(NC(=O)CCC)n1
→ i, 13, 1, -7, -95, 6, -23, 15
[17] COc1nc(N=C(N)N)nc2ccc(C)cc12
→ i, -9, /, /, /, -3, /, /
[18] CCC1=C2CC[C@H]3C(=O)N(CC)C(=O)[C@H]3[C@H]2[C@@]2(Cc3ccccc3)C(=O)N(Cc3ccccc3)C(=O)N2C1=O
→ i, 5, -3, -3, 30, -12, -11, -7
[19] Cc1ccc(S(=O)(=O)N2CCC(C(=O)OCc3ccc([N+](=O)[O-])cc3)CC2)cc1
→ i, 4, 1, 2, 5, 9, -5, 16
[20] Cc1noc(C)c1S(=O)(=O)N1CCC(C(=O)N(C)Cc2ccccc2)CC1
→ i, 2, 9, 2, /, -4, 1, -6

Record cards (already shown):
`CSc1oc(-c2ccco2)nc1S(=O)(=O)c1ccc(Br)cc1` in the list: Rce1 inh = i; PABP FP inh = 2; MT1-MMP act inh = 2; MT1-MMP act inh RFP = 1; Env fusion inh = -26; eIF4H FP inh = -5; Yeast UUG start = -7; CSC inhib = -6
`Brc1ccccc1OCCCOc1cccc2cccnc12` in the list: Rce1 inh = i; PABP FP inh = 1; MT1-MMP act inh = 2; MT1-MMP act inh RFP = -7; Env fusion inh = -26; eIF4H FP inh = 5; Yeast UUG start = -16; CSC inhib = 25

Next results.
Screens in order: Rce1 inh, PABP FP inh, MT1-MMP act inh, MT1-MMP act inh RFP, Env fusion inh, eIF4H FP inh, Yeast UUG start, CSC inhib
[21] NS(=O)(=O)c1cccc(NC(=O)c2ccc3nc[nH]c3c2)c1
→ i, 34, 3, 7, -9, 23, -7, -3
[22] O=C(Nc1ccc(F)cc1)c1cc(S(=O)(=O)N2CCCCC2)ccc1F
→ i, 6, 2, -12, -3, -7, -10, 17
[23] CCc1ccc(OCC(O)CN2CCN(CCO)CC2)cc1 (stereo not given)
→ i, 18, 2, 4, 4, 6, -10, -12
[24] COC(=O)c1[nH]c2cc(OC)ccc2c1NC(=O)CN1CCOCC1
→ i, -2, /, /, /, -10, /, /
[25] COc1ccc2nc(N(Cc3ccccc3)C(=O)CCNC(C)=O)sc2c1
→ i, -2, 6, -2, 27, -6, -7, 4
[26] O=C(O)CCCNCc1ccccc1F
→ /, 2, -1, 1, -19, -3, -9, /
[27] COc1ccc(/C=C2\NC(=O)C(C=NCc3ccccc3)=C2O)cc1
→ i, 29, 4, 3, /, -9, /, 54
[28] Cn1c(=O)c(=O)n(C)c2cc(S(=O)(=O)CCC(=O)NCc3ccccc3)ccc21
→ i, 2, -7, 2, /, 18, -11, -12
[29] CCOC(=O)c1cc(NC(=O)N(C(C)C)C(C)C)c(C)nc1C
→ i, -4, 6, 2, -23, 2, -33, 8
[30] COc1ccc(NCc2nnc(SCC(=O)Nc3ccccc3)n2C)cc1
→ i, -11, 2, 2, -15, 2, -26, -11
[31] CCOC(=O)c1ccc(NC(=O)CN2CCc3ccccc3C2)cc1
→ i, 10, -1, -2, -77, 1, -4, 29
[32] CCc1nnc(NC(=O)C(CC)c2ccccc2)s1 (stereo not given)
→ i, -2, 5, 5, 13, -4, -4, 13
[33] C=CCn1c(=O)c2ccccc2n2c(SCC(C)=O)nnc12
→ /, 0, 3, 2, -1, 5, -19, -18
[34] Cc1cc(NC(=O)C(C)(C)C)no1
→ i, 2, 0, 4, /, -6, -15, -14
[35] O=C(CO/N=C/c1c(Cl)cccc1Cl)NNC(=O)c1ccc(Cl)cc1
→ i, 2, 1, 2, -14, -3, -10, 0
[36] O=C1COc2ccc(-c3n[nH]c(=O)c4ccccc34)cc2N1
→ i, -1, -8, -12, 5, 4, /, 8
[37] O=C(c1ccc(Br)o1)N1CCN(c2ccccc2F)CC1
→ i, -11, -3, -5, 18, -3, -10, -8
[38] Cc1ccc(N(Cc2cc(=O)[nH]c3ccccc23)C(=O)CCl)cc1
→ i, 3, -12, -4, -1, 3, 0, 57
[39] CN1C(=O)CSc2ccc(NC(=O)N3CCN(c4ccccc4)CC3)cc21
→ i, -10, 9, 9, 10, -1, /, -16
[40] CCC(C)CCN1C(N(C)C)=NC[C@@H]1C (stereo not given in full)
→ /, /, 3, 5, 7, /, -10, -8
[41] CCn1cc(C(=O)OCC(=O)Nc2ccc(C(C)C)cc2)c(=O)c2ccc(C)nc21
→ i, 0, 2, 3, 11, -1, /, -8
[42] Oc1ccc(/C=N/NC2=NCCCCC2)cc1
→ i, 7, 4, 4, 4, -7, -14, /
[43] O=C(C[C@H]1CC[C@H]2[C@@H](COC[C@H](O)CN2Cc2ccccc2)O1)NCCCN1CCOCC1
→ /, /, -3, 2, 20, /, -20, /
[44] CCOC(=O)C1CCN(S(=O)(=O)c2ccc3c(c2)NC(=O)C(C)C(=O)N3)CC1 (stereo not given)
→ i, -8, 0, 1, 15, -3, 15, /
[45] S=c1[nH]nc(-c2ccncc2)n1/N=C/c1cn(-c2ccccc2)nc1-c1ccc(Cl)cc1
→ i, 12, -6, -5, 20, 46, -8, 5
[46] C=CCCC(=O)Nc1nc(C)c(-c2csc(Nc3ccc(Cl)cc3Cl)n2)s1
→ i, -8, 1, 1, /, -9, 4, 38
[47] Cc1ccsc1/C=C1\SC(N)=NC1=O
→ i, 0, -3, 4, /, 2, /, -3
[48] O=C(/C=C/c1ccccc1)N/C(=C/c1ccccc1)C(=O)N1CCCCC1
→ i, 9, -3, 0, -68, 4, 12, -1
[49] O=[N+]([O-])c1c(Nc2ccccc2)ccc2nonc12
→ i, -16, 5, 4, i, -5, -2, -8
[50] COC(=O)c1sc(S(=O)(=O)NCCC(=O)O)c(C(=O)OC)c1C
→ i, -14, -1, 4, -2, -1, -7, -8
[51] C/C(=N\NC(=O)c1cccc(S(=O)(=O)N2CCCC2)c1)c1ccco1
→ i, -2, 1, 2, 11, -7, /, -2
[52] CC(C)NC(=S)NC(=O)c1ccc(Cl)cc1Cl
→ i, -5, -3, -8, -2, -1, /, /
[53] CC(=O)c1cc(CN2CCC(C(=O)Nc3ccc(-n4nc(C)cc4C)cc3)CC2)cs1
→ i, -7, 2, -2, 0, -10, -17, 0
[54] COCCC(=O)N1CCC(C(=O)Nc2ccc(Oc3ccccc3)nc2)CC1
→ i, -7, 2, -4, -21, 3, -22, -21
[55] Cc1nc(N)sc1Cc1ccc2c(c1)OCO2
→ i, -3, 2, 2, /, 1, -15, -18
[56] O=C(COC(=O)/C=C/c1ccc(Br)o1)NCCCN1CCCC1=O
→ i, 3, -1, -1, 8, 6, /, 6
[57] O=S(=O)(Cc1noc(-c2ccc(Cl)cc2)n1)Cc1ccco1
→ i, 16, -3, -1, -33, 13, -6, -20
[58] COCCN1C(=O)c2oc3ccccc3c(=O)c2C1c1ccc(OC)c(OC)c1 (stereo not given)
→ i, 2, -1, 6, -3, -4, -19, -15
[59] CCc1ccccc1NC(=S)N(Cc1cccc(C)c1)c1cccnc1
→ i, -12, 0, -2, 13, -8, /, -6
[60] Cc1ccc(CSCC(=O)N(C)CC(=O)Nc2ccccc2C(F)(F)F)cc1
→ i, /, 0, -1, 3, /, -10, -5
[61] COc1cc2c(=O)n(CC3CCCO3)c(=O)n(CC(=O)Nc3cccc(Cl)c3)c2cc1OC (stereo not given)
→ i, 14, -3, -2, /, -6, /, -19
[62] C/C=C/c1cccc(-c2nc(C(=O)NC3CCC3)cc3c2[C@@H](CCO)N(S(=O)C(C)(C)C)C3)c1 (stereo not given in full)
→ /, /, -1, 6, 6, /, -2, /
[63] O=C(CN(CCO)c1ccccc1)Nc1cccc(S(=O)(=O)N2CCCC2)c1
→ i, -2, 0, -8, 2, -2, -8, -2
[64] OC(COc1ccc2ccccc2c1)CN1CCCC1 (stereo not given)
→ i, -5, 1, 3, /, -1, -2, -1
[65] COc1cc2ncnc(NCc3cccc(F)c3F)c2cc1OC
→ i, 8, 6, 1, 19, -5, -9, 49
[66] O=C1C(Nc2ccccc2)=C(N2CCCCC2)C(=O)c2ccccc21
→ i, -2, -15, -16, /, 4, /, 4
[67] C=CCN(C(=O)c1cccc(N2C(=O)C3CC=CC(C)C3C2=O)c1)c1ccccc1 (stereo not given)
→ i, -12, -1, -3, 11, 1, /, 0
[68] O=C(Cn1nnc2ccccc2c1=O)NCCc1ccc(Cl)cc1Cl
→ i, -9, -1, -1, 7, -8, /, -8
[69] CCN(CC)C(=O)C1=C(C)N(Cc2ccccc2)C(=O)C(CC(=O)NCc2cccs2)C1 (stereo not given)
→ /, /, 1, 4, -3, /, -22, /
[70] CN1CCN(C(=O)/C(=C\c2cccs2)NC(=O)c2cccs2)CC1
→ i, 13, 0, 7, /, -6, 0.0*, -4
[71] COc1ccc(Cl)cc1NC(=O)CNc1ccccc1CN(C)C1CCCCC1
→ i, 43, 3, 7, 25, -5, /, 15
[72] O=C(CSCc1c(F)cccc1Cl)Nc1cccnc1
→ i, -5, 1, 1, 0, 3, /, -16
[73] COc1cc(/C=C2/C(=N)N3N=C(C(C)C)SC3=NC2=O)ccc1OS(=O)(=O)c1ccccc1
→ /, 9, 0, 2, 2, 5, 4, 11
[74] COc1cc(C(=O)Nc2cccnc2)cc(OC)c1OC
→ i, 4, 3, 4, -2, -6, -14, 0
